Source: PubChem BioAssay
2A StopGo: High Throughput Screening for Foot and Mouth Disease Virus Antivirals; 1.2% of 410,000 active; human cells with a luciferase reporter of 2A StopGo recoding; control for the full effect not named in the record; Potency, µM (titrated, usually from 57.9 µM), without a hit: at the top dose signal change, negative = less light; active = well fitted falling curve with a large enough effect; inconclusive = small, poorly fitted or top-dose-only effect; inactive = no such curve, though single readings can be large or run the other way; tested in HEK293T cells; also: % is scaled to controls: 0 for no effect and ±100 for the full control effect; nearly all actives have a fitted effect of over 45% in size; luciferase light after 4 h
MARV entry inh: qHTS for inhibitors of binding or entry into cells for Marburg Virus. 1.8% of 300,000 active. Potency, µM (highest dose often 37.8 µM), inactives show top-dose activity change, negative = inhibition, hits mostly inhibitors. AID 540276, 2011. Marburg virus pseudotyped entry inhibition, cell reporter; control for the full effect not named in the record; about a third of the inactives were read at about 46 µM; active = well fitted inhibition curve with a large enough effect; inconclusive = small, poorly fitted or top-dose-only effect, or effect the other way; inactive = flat fitted curve, though single readings scatter; tested in HEK293 cells; about a fifth of its hits are not listed in these tables; also: % is scaled to controls: 0 for no effect and ±100 for the full control effect; luciferase read-out
SARS PLP yeast: qHTS of Yeast-based Assay for SARS-CoV PLP. S. cerevisiae expressing SARS-CoV PLpro, growth rescue; control for the full effect not named in the record. Potency, µM (series often up to 32.9 µM), for inactives: at the top dose activity, positive = growth rescue. 0.19% of 330,000 active. AID 485353, 2010; active means well fitted rising curve with a large enough effect; inconclusive means small, poorly fitted or top-dose-only effect; inactive means no such curve, though single readings can be large or run the other way; also: 0% is about no effect; nearly all actives have a fitted effect of over 55% in size; growth read by luminescence after 48 h
Cruzain inh noDet: qHTS Assay for Promiscuous and Specific Inhibitors of Cruzain (without detergent). Cruzipain (Trypanosoma cruzi), P25779. purified cruzain, Z-FR-AMC fluorescence, no detergent. Potency, µM, inactives show max response, negative = inhibition, most hits filed as inhibitors. 2.3% of 200,000 active;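 also: plate controls were enzyme without inhibitor for no effect and buffer without enzyme for full effect; nearly all actives have a fitted effect of over 40% in size; top concentration of the series not given in the record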
Target sequence (P25779 123-467 limits assumed): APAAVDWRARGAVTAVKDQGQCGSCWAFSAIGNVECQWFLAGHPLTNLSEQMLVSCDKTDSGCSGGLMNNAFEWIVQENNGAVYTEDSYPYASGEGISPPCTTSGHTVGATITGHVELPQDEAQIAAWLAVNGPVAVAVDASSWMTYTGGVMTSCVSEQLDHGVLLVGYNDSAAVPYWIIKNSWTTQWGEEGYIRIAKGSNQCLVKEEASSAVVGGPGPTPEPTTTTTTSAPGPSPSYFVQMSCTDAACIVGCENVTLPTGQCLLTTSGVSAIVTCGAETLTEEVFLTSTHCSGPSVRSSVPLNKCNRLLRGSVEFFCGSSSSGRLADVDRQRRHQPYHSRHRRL
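Detergent-free condition (0.00005% Triton X-100) in acetate buffer pH 5.5 with DTT. 1.5 nM enzyme and compound were pre-mixed 15 min, then 2 uM Z-FR-AMC substrate added; reaction progress from fluorescence change between first and third reads (60 s).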
NS1 inh: qHTS Assay for Inhibitors of Influenza NS1 Protein Function | S. cerevisiae slowed by influenza A NS1, growth recovery by OD600 | Potency, µM (top dose mostly 46.1 µM), for inactives: at the top dose activity, positive = more growth | 0.4% of 270,000 active | AID 2326, 2010; active means well fitted rising curve with a large enough effect; inconclusive means small, poorly fitted or top-dose-only effect; inactive means no such curve, though single readings can be large or run the other way; also: nearly all actives have a fitted effect of over 50% in size
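Compounds were scored for reversing the slow growth caused by influenza A NS1 in S. cerevisiae, measured by optical density at 600 nm. Assay medium contained 2% galactose at pH 6.0; NS1-free yeast of the same strain were the positive control.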
RE007 growth inh: qHTS Assay for Inhibitors of the HIV-1 protein Vpr; S. pombe RE007 Vpr strain, BacTiter-Glo ATP luminescence, 24 h; control for the full effect not named in the record; Potency, µM (titrated, usually from 92.2 µM), for the others: at the top dose activity change, negative = less growth; 0.21% of 360,000 active; active = well fitted falling curve with a large enough effect; inconclusive = small, poorly fitted or top-dose-only effect; inactive = no such curve, though single readings can be large or run the other way;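 also: % is scaled to controls: 0 for no effect and ±100 for the full control effect; nearly all actives have a fitted effect of over 50% in size; the assay follows cell death caused by Vpr and the record does not say whether a fall means rescue or toxicity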
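Fission yeast strain RE007, carrying one chromosomally integrated HIV-1 vpr copy, was seeded at OD 0.01 in PMG+AL medium with 23 nL pinned compound. After 24 h at 30 °C and 99% humidity, viability was read by BacTiter-Glo luminescence.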
Cruzain Triton: qHTS Assay for Promiscuous and Specific Inhibitors of Cruzain (with detergent) | 0.43% of 200,000 active | Potency, µM, without a hit: max response, negative = inhibition, usual class: inhibitors | Cruzipain (Trypanosoma cruzi), P25779 | purified cruzain, Z-FR-AMC fluorescence, 0.01% Triton;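 also: plate controls were neutral wells for no effect and buffer without enzyme for full effect; nearly all actives have a fitted effect of over 40% in size; top concentration of the series not given in the record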
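Sodium acetate buffer (100 mM, pH 5.5) containing 5 mM DTT and 0.01% Triton X-100 hosted 1.5 nM cruzain and test compound for 15 min at room temperature. Cleavage of 2 uM Z-FR-AMC was then tracked by fluorescence.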
Lassa entry inh: qHTS for Inhibitors of binding or entry into cells for Lassa Virus. Potency, µM (series often up to 37.9 µM), for the others: at the highest dose activity change, negative = inhibition, actives largely listed as inhibitors. 1.2% of 300,000 active. AID 540256, 2011. Lassa virus pseudotype entry inhibition, cell reporter; control for the full effect not named in the record; active means well fitted inhibition curve with a large enough effect; inconclusive means small, poorly fitted or top-dose-only effect, or effect the other way; inactive means flat fitted curve, though single readings scatter; tested in HEK293 cells; also: % is scaled to controls: 0 for no effect and ±100 for the full control effect; nearly all actives have a fitted effect of over 50% in size; luciferase read-out
Starred values were filed as active, the others as inactive; u = inconclusive; x = not tested or not shown; & = joins results of further samples; [ ] = another dose, or the depositor's remark. Unless noted, calls follow the shape of the dose curve; as a rule, active = well fitted curve in the direction sought with a large enough effect; inconclusive = small, poorly fitted or top-dose-only effect, or another doubt; inactive = no such curve, though single readings can be large; an effect the other way counts as inactive or inconclusive. Potency is read from the fitted curve at half-maximal effect.

SMILES	2A StopGo	MARV entry inh	SARS PLP yeast	Cruzain inh noDet	NS1 inh	RE007 growth inh	Cruzain Triton	Lassa entry inh
Nc1ncnc2c1ncn2C1CCCO1 (stereo not given)	-22%	u	x	u	11%	-7%	4.0%	u
Cc1nc(-c2ccc(S(=O)(=O)N3CCCCCC3)cc2)cs1	-12%	12%	17%	-12%	-10%	-9%	-1.6%	8%
c1ccc(OCCCN2CCCC2)cc1	5%	-4%	16%	10%	u	11%	6.0%	1%
COC(=O)c1ccc(-n2c(/C=C/c3cc(OC)c(OC)c(OC)c3)nc3cc(Cl)ccc3c2=O)cc1	-26%	x	x	15%	x	x	0.3%	-4%[46.1 µM]
C=CCSc1nc2ccccc2n1C(=O)/C=C/c1ccc(OC)c(OC)c1	u	u	-1%	8%	17%	-4%	1.1%	8.2µM*
Cc1c(NC(=S)Nc2ccc(Cl)cc2)c(=O)n(-c2ccccc2)n1C	-11%	x	-1%	x	4%	16%	x	x
O=C(c1cccc(-c2ccccc2)c1)N1CC[C@@H](N2CCC(O)CC2)[C@H](O)C1	7%	x	u	x	-3%	-2%	x	x
O=C(NCCC1=CCCCC1)C1CCC(=O)N(Cc2ccc(Cl)cc2)C1 (stereo not given)	0%	-3%	-4%	x	-2%	0%	x	1%
COc1ccc(CCNC(=O)c2cc(COc3c(F)cccc3F)on2)c(OC)c1	27%	14%	2%	x	-33%	-1%	x	-9%
CC(C)c1ccc(NC(=O)CN2C(=O)c3ccccc3S2(=O)=O)cc1	39%[activator]	u	-2%	x	-4%	175%	x	u
COc1ccc(CC2CC(=O)N(c3ccc(C)cc3)C2=O)cc1 (stereo not given)	-1%	3%[46.1 µM]	0%	x	-1%	4%	x	-10%[46.1 µM]
O=C(CSc1nnnn1-c1cccnc1)NCc1cccs1	14%	4%[46.1 µM]	-1%	8%	2%	20%	2.8%	3%
O=C(COc1ccc(Cl)cc1)NCCN1CCCC1	-13%	x	23%	x	3%	0%	x	x
COc1cc(NS(=O)(=O)c2ccc(NC(=S)NC(=O)/C=C/c3ccc(F)cc3)cc2)ncn1	12%	x	-1%	x	3%	-5%	x	x
CC(C)CNC(=O)c1ccccc1C(=O)NC1(C(=O)NCC(C)C)CCCC1	1%	11%	x	x	x	25%	x	15%
COc1ccc(N=Cc2oc3ccc4ccccc4c3c2O)cc1	20%	-4%[46.1 µM]	-4%	x	x	-16%	x	8%[46.1 µM]
CCc1ccc(NC(=O)CSc2nnc3[nH]c(=O)cc(-c4ccccc4)n23)cc1	16%	x	x	u	x	x	-1.9%	u
CC(=O)NCCOC(=O)Nc1sc(=S)n(C)c1C	13%	3%	-18%	1%	-8%	6%	-4.0%	17%
C/C(=N\NS(=O)(=O)c1ccc([N+](=O)[O-])cc1)c1ccc(NC(=O)c2ccco2)cc1	165%[activator]	3%[46.1 µM]	-7%	x	x	u	x	x
CCn1nc(NS(=O)(=O)c2ccc([N+](=O)[O-])cc2)c2cc3cc(C)ccc3nc21	17%	0%[46.1 µM]	1%	x	6%	-5%	x	21%[46.1 µM]
CCOC(=O)c1cccc(NC(=O)CCc2c(C)nc3cc(-c4ccc(Cl)cc4)nn3c2C)c1	u	8%[46.1 µM]	x	3%	x	x	2.0%	u
CN1CCN(c2ccc(S(=O)(=O)N3CCOCC3)cc2NC(=O)COc2ccc(F)cc2Cl)CC1	-12%	u	-4%	x	-1%	-10%	x	10%
CC(C)Oc1ccc(CNC2CCOC(C)(C)C2)cc1 (stereo not given)	9%	u	2%	0%	-2%	4%	-0.4%	10%
COc1ccc(N2C(=O)CC(NNC(=O)c3cccnc3)C2=O)cc1 (stereo not given)	-10%	x	-4%	x	-1%	-2%	x	x
O=C(Nc1ccc(S(=O)(=O)Nc2nccs2)cc1)c1cnc(Cl)c(Cl)c1	14%	x	0%	x	6%	-9%	x	x
CC(C)(C)c1ccc(-n2ncc3c2CCCC3NC(=O)CCn2cncn2)cc1 (stereo not given)	-13%	-13%	-10%	x	-2%	0%	x	7%
CCC(C)c1ccccc1N=Cc1ccc2c(c1)OCO2 (stereo not given)	19%	3%[46.1 µM]	0%	x	-3%	2%	x	14%[46.1 µM]
CCOc1ccc2ccccc2c1/C=N/n1cncn1	5%	3%	-13%	4%	-43%	11%	-6.5%	0%
Cc1csc(NC(=O)c2nc3nc(C)cc(C)n3n2)n1	12%	u	2%	-11%	-9%	10%	-2.6%	u
O=C(Nc1ccc(-c2nc3ccccc3[nH]2)cc1)c1ccco1	x	-22%&-22%	-7%	-9%	0%	-5%	u	u
COc1ccc(NC(=O)c2cc3c(Cl)nc4ccccc4c3s2)cc1OC	u	u	27%	u	5%	-3%	-6.6%	-10%
CC(=O)Nc1cccc(C(=O)Nc2ccc(S(=O)(=O)NC3=NCCCCC3)cc2)c1	-25%	-2%	2%	x	x	-14%	x	4%
CC12CCC(C(=O)NCC3CCCO3)(OC1=O)C2(C)C (stereo not given)	-19%	-17%	4%	-5%	8%	6%	1.1%	-1%
O=c1c([N+](=O)[O-])c(N2CCOCC2)c2ccccc2n1-c1ccccc1	26%	0%[46.1 µM]	0%	x	0%	6%	x	-14%[46.1 µM]
O=C(O)CSC1c2ccccc2C(=O)N1Cc1ccccc1 (stereo not given)	6%	-5%	1%	7%	0%	-13%	4.3%	-6%
COC(=O)C(Cc1ccccc1)NC(=O)CNC(=O)c1ccccc1OC (stereo not given)	-6%	1%[46.1 µM]	-19%	x	-6%	6%	x	u
Cc1cc(C)n(-c2nc3ccccc3nc2N2CCN(C(=O)c3ccc(F)cc3)CC2)n1	-3%	2%	2%	1%	-26%	1%	-6.3%	u
CC(=O)c1ccc(S(=O)(=O)N2CCNC(=O)C2)cc1	-1%	13%	5%	x	x	12%	x	18%
N#Cc1c2n(c3c(=O)n(Cc4ccccc4)cnc13)CCCC2	1%	8%	-3%	-2%	-10%	11%	-8.5%	u
O=C(NCc1ccco1)c1nn(-c2ccccc2)c(=O)c2ccccc12	-26%	-31%	3%	-16%	-2%	21%	-3.6%	u
COc1ccc(S(=O)(=O)N(CCCN2CCCC2=O)Cc2cc3cc(C)c(C)cc3[nH]c2=O)cc1	-24%	-8%	2%	u	-14%	0%	6.8%	-19%
CC(=NNC(=O)c1cccc(S(=O)(=O)N2CCOCC2)c1)c1ccc(Cl)cc1	-12%	u	-5%	x	x	0%	x	-17%[46.1 µM]
CCn1c(SCC(=O)NC2CCCC2)nnc1-c1ccoc1C	-5%	1%[46.1 µM]	11%	x	13%	-17%	x	-18%[46.1 µM]
CCCCN(C(=O)c1cc2c(s1)CCCCC2)c1c(N)n(CC(C)C)c(=O)[nH]c1=O	2%	-12%	-3%	x	x	0%	x	u
CC(C)(C)C(=O)N1CCN(c2ccc([N+](=O)[O-])cc2Cl)CC1	-29%	u	x	x	x	11%	x	u
COC(=O)CSc1nccc(-c2cccs2)n1	21%	1%[46.1 µM]	0%	x	x	-5%	x	1%[46.1 µM]
Cc1noc(C)c1COc1cccc(C(=O)Oc2ccc3c(c2)OCO3)c1	x	-3%	-9%	-2%	-34%	3%	-0.9%	10%
CCCc1ccc(OCC(=O)O)cc1	x	15%	0%	-3%	-4%	-1%	6.5%	0%
O=c1c(Cl)c(N/N=C/c2ccc(Cl)cc2)cnn1-c1ccccc1	13%	-28%	-68%	u	-7%	u	-8.0%	0%
Cc1nc(-c2ccc3c(c2)OCO3)cs1	5%	9%	-1%	-5%	-1%	14%	3.4%	21%

Further results follow.
SMILES	2A StopGo	MARV entry inh	SARS PLP yeast	Cruzain inh noDet	NS1 inh	RE007 growth inh	Cruzain Triton	Lassa entry inh
COc1ccccc1CNC(=O)c1cc(Sc2cccc(Cl)c2)nc2ccccc12	17%	x	x	-9%	x	x	6.6%	u
CC[N+]1(C)CCC(O)(c2ccc(OC)cc2)C(C(=O)c2ccc(OC)cc2)C1 (stereo not given)	u	u	x	x	x	40µM*	x	-5%
COc1nc(-c2cccs2)cc(-c2ccc(C)cc2)c1C#N	-16%	u	-1%	u	9%	3%	2.1%	u
O=C(CSc1nc2c(c(C(F)(F)F)n1)CCc1ccccc1-2)NCc1ccco1	-20%	-25%	-3%	-6%	-5%	-10%	-9.5%	-25%
CCOc1cc(/C=N\NC(=O)Cn2nc([N+](=O)[O-])cc2C)ccc1OCc1cccc2ccccc12	-13%	-22%	5%	13µM*	22%	-17%	-1.5%	-7%
COc1ccc(NCc2cccn2-c2nnc(N3CCC(C)CC3)s2)c(OC)c1	2µM*	x	x	1%	x	x	-6.6%	-2%[46.1 µM]
COc1ccc(-c2csc3ncnc(N4CCN(c5ccccc5Cl)CC4)c23)cc1	u	u	-4%	x	0%	-4%	x	-13%
CCc1nnc(NC(=O)c2ccc(S(=O)(=O)N(C)c3ccccc3)cc2)o1	0%	u	7%	x	x	-2%	x	u
COc1ccc(NC(=O)c2cc(C)nc3ccccc23)cc1S(=O)(=O)N1CCOCC1	-12%	1%	10%	x	x	-9%	x	-16%
O=C(O)C1OC(Oc2c(-c3ccc(O)c(O)c3)oc3cc(O)cc(O)c3c2=O)C(O)C(O)C1O (stereo not given)	-4%	u	-7%	-7%	-2%	3%	-2.3%	-4%
Cc1ccc(CNC(=O)C2CCN(S(=O)(=O)c3c(C)noc3/C=C/N(C)C)CC2)cc1	20%	x	-1%	x	u	13%	x	x
Cc1cc(C)c([N+](=O)[O-])cc1NCC(=O)N1CCN(c2ccccc2)CC1	2%	x	-1%	x	11%	2%	x	x
COC(=O)c1ccc2c(c1)N(C)S(=O)(=O)c1cnc(SCC(=O)C(C)(C)C)nc1-2	-9%	8%[46.1 µM]	0%	x	0%	3%	x	u
